Screening results (PubChem)
SARS PLpro yeast: inhibitors of SARS-CoV papain-like protease in yeast | Potency, µM (top dose mostly 32.9 µM), inactives show at the highest dose activity, positive = growth rescue | S. cerevisiae expressing SARS-CoV PLpro, growth rescue; control for the full effect not named in the record | actives 0.19% (n = 330,000); note: 0% is about no effect; nearly all actives have a fitted effect of over 55% in size; growth read by luminescence after 48 h
Cruzain noTriton: inhibitors of Trypanosoma cruzi cruzain without detergent; purified cruzain, Z-FR-AMC fluorescence, no detergent; Potency, µM, without a hit: max response, negative = inhibition, usual class: inhibitors; P25779; AID 1476; actives 2.3% (n = 200,000); active = well fitted curve in the direction sought with a large enough effect; inconclusive = small, poorly fitted or top-dose-only effect, or another doubt; inactive = no such curve, though single readings can be large; an effect the other way counts as inactive or inconclusive;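 note: plate controls were enzyme without inhibitor for no effect and buffer without enzyme for full effect; nearly all actives have a fitted effect of over 40% in size; top concentration of the series not given in the record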
Target sequence (P25779 123-467 limits assumed): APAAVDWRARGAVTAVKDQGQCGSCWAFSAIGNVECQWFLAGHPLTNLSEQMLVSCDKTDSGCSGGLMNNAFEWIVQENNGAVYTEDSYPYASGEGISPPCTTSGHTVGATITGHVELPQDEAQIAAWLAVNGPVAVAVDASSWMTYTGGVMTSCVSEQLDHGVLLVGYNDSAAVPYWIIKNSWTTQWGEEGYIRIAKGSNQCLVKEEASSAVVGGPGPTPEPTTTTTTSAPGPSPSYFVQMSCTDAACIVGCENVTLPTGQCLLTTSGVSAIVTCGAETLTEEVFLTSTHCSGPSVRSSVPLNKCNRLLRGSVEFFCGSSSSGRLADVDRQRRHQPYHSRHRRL
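Detergent-free condition (0.00005% Triton X-100) in acetate buffer pH 5.5 with DTT. 1.5 nM enzyme and compound were pre-mixed 15 min, then 2 uM Z-FR-AMC substrate added; reaction progress from fluorescence change between first and third reads (60 s).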
NS1 function inh: inhibitors of influenza NS1 protein function; S. cerevisiae slowed by influenza A NS1, growth recovery by OD600; Potency, µM (top dose mostly 46.1 µM), without a hit: at the top dose activity, positive = more growth; actives 0.4% (n = 270,000); note: actives are rising curves; nearly all actives have a fitted effect of over 50% in size
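Read-out: OD600 growth recovery of NS1-expressing budding yeast. Cells grown overnight at 30C in -URA glucose medium, washed, resuspended and diluted 1:100 in 2% galactose assay medium, pH 6.0. Same strain lacking NS1 served as positive control.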
2A StopGo: lowers the luciferase signal of an FMDV 2A StopGo reporter; human cells with a luciferase reporter of 2A StopGo recoding; control for the full effect not named in the record; Potency, µM (highest dose often 57.9 µM), inactives show at the highest dose signal change, negative = less light; actives 1.2% (n = 410,000); AID 1159524; active = well fitted falling curve with a large enough effect; inconclusive = small, poorly fitted or top-dose-only effect; inactive = no such curve, though single readings can be large or run the other way; tested in HEK293T cells; note: % is set by controls: 0 for no effect and ±100 for the full control effect; nearly all actives have a fitted effect of over 45% in size; luciferase light after 4 h
LASV entry inh: blocks Lassa virus binding to or entry into cells; Potency, µM (top dose mostly 37.9 µM), without a hit: top-dose activity change, negative = inhibition, usual class: inhibitors; actives 1.2% (n = 300,000); Lassa virus pseudotype entry inhibition, cell reporter; control for the full effect not named in the record; active means well fitted inhibition curve with a large enough effect; inconclusive means small, poorly fitted or top-dose-only effect, or effect the other way; inactive means flat fitted curve, though single readings scatter; tested in HEK293 cells; note: % is set by controls: 0 for no effect and ±100 for the full control effect; nearly all actives have a fitted effect of over 50% in size; luciferase read-out
MARV entry inh: inhibitors of Marburg virus binding or cell entry; Potency, µM (doses to about 37.8 µM), for the others: at the top dose activity change, negative = inhibition, most hits filed as inhibitors; actives 1.8% (n = 300,000); Marburg virus pseudotyped entry inhibition, cell reporter; control for the full effect not named in the record; about a third of the inactives were read at about 46 µM; active = well fitted inhibition curve with a large enough effect; inconclusive = small, poorly fitted or top-dose-only effect, or effect the other way; inactive = flat fitted curve, though single readings scatter; tested in HEK293 cells; about a fifth of its hits are not listed in these tables; note: % is set by controls: 0 for no effect and ±100 for the full control effect; luciferase read-out
Cruzain Triton: inhibitors of Trypanosoma cruzi cruzain with detergent | actives 0.43% (n = 200,000) | Potency, µM, inactives show max response, negative = inhibition, usual class: inhibitors | purified cruzain, Z-FR-AMC fluorescence, 0.01% Triton; active = well fitted curve in the direction sought with a large enough effect; inconclusive = small, poorly fitted or top-dose-only effect, or another doubt; inactive = no such curve, though single readings can be large; an effect the other way counts as inactive or inconclusive;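 note: plate controls were neutral wells for no effect and buffer without enzyme for full effect; nearly all actives have a fitted effect of over 40% in size; top concentration of the series not given in the record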
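Steps: dispense cruzain (1.5 nM final) in acetate buffer pH 5.5 with DTT and 0.01% Triton X-100; pin-transfer compounds; incubate 15 min RT; add Z-FR-AMC (2 uM final); read fluorescence every 30 s, using the 60 s intensity change.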
RE007 growth inh: less growth of the S. pombe RE007 Vpr strain; S. pombe RE007 Vpr strain, BacTiter-Glo ATP luminescence, 24 h; control for the full effect not named in the record; Potency, µM (highest dose often 92.2 µM), without a hit: at the top dose activity change, negative = less growth; actives 0.21% (n = 360,000); AID 651644; active = well fitted falling curve with a large enough effect; inconclusive = small, poorly fitted or top-dose-only effect; inactive = no such curve, though single readings can be large or run the other way;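 note: % is set by controls: 0 for no effect and ±100 for the full control effect; nearly all actives have a fitted effect of over 50% in size; the assay follows cell death caused by Vpr and the record does not say whether a fall means rescue or toxicity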
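Fission yeast RE007 carrying one integrated HIV-1 vpr copy, seeded at OD 0.01 in PMG+AL medium with 23 nL pinned compound. Grown 24 h at 30 degrees; viability read by BacTiter-Glo luminescence after 5 min.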
The depositor's hits bear a star; ? = inconclusive; . = not tested or not shown; & = joins results of further samples; [ ] = another dose, or the depositor's remark. Unless noted, calls come from the whole dose curve; as a rule, active means well fitted rising curve with a large enough effect; inconclusive means small, poorly fitted or top-dose-only effect; inactive means no such curve, though single readings can be large or run the other way. Potency is the fitted concentration of half-maximal effect.

SMILES | SARS PLpro yeast | Cruzain noTriton | NS1 function inh | 2A StopGo | LASV entry inh | MARV entry inh | Cruzain Triton | RE007 growth inh
COc1ccc(/C=N/c2oc(C)c(C)c2C#N)c(OC)c1 | 0% | . | 1% | 6% | -20% | 2%[46.1 µM] | . | 7%
COC(=O)c1c(C(=O)OC)c(-c2ccc(OC)cc2)n2c1CS(=O)(=O)C2 | -1% | . | -7% | -1% | . | . | . | 5%
CCN1CCN(c2cc(C)c3cc(NC(=S)N4CCN(c5ccccc5)CC4)ccc3n2)CC1 | -2% | . | . | 9% | -12% | ? | . | 2%
CCc1cccc(NC(=O)COC(=O)/C=C/c2cccs2)c1 | -8% | . | . | -9% | 6%[46.1 µM] | 13% | . | -12%
CCn1c(O)c(C=Nc2ccccc2)oc1=S | 17% | -23% | -104% | 9% | 9% | ? | -2.2% | -7%
CCOc1cccc(OCCCOc2ccccc2)c1 | -1% | -8% | 5% | 18% | 3% | ? | 0.7% | -6%
O=C(Nc1ccc(Br)cc1F)C1CCN(c2nc3ccccc3[nH]2)CC1 | . | 0% | . | -6% | 16%[46.1 µM] | . | -0.5% | .
Nc1cccc(S(=O)(=O)c2cccc(N)c2)c1 | 0% | -9% | 7% | 12% | ? | -5% | 4.7% | 7%
CCN(C(=O)CN1C(=O)S/C(=C\c2ccc(F)cc2)C1=O)C1CCS(=O)(=O)C1 (stereo not given) | -17% | . | -79% | 26% | . | . | . | -25%
CCc1ccc(-n2c(SCC(=O)Nc3cccc(S(=O)(=O)NC4=NCCCCC4)c3)nc3ccccc3c2=O)cc1 | 18% | ? | ? | -6% | -7% | ? | -2.6% | 12%
COc1cc(CN2CCN(C(c3ccccc3)c3ccccc3)CC2)cc(OC)c1OC | 4% | . | -15% | -5% | . | . | . | 5%
Cc1ccc2c(c1)N(C)/C(=C/c1cccc[n+]1CCO)S2 | -1% | . | -1% | ? | . | . | . | ?
Cc1ccc(NC(=O)C2(N(CC(C)C)C(=O)Cn3nnnc3N)CCCCC2)cc1 | -6% | -1% | 0% | 10% | 7% | 8% | 3.2% | 2%
O=C(NC1CCN(S(=O)(=O)c2ccc(F)cc2)CC1)c1ccccc1 | 1% | . | 13% | -5% | -15%[46.1 µM] | -27%[46.1 µM] | . | 15%
CCN(Cc1cc(=O)n2ccsc2n1)c1cccc2ccccc12 | -94% | 0% | -28% | -8% | -4% | 0% | -7.7% | 25%
COCCn1c(SCC(=O)NC2CCCC2)nnc1C(C)C | 2% | . | -3% | -3% | 2% | 3%[46.1 µM] | . | -29%
COc1cc(C2N(c3ccccc3)CCN2c2ccccc2)ccc1OC(C)=O | 3% | -17% | ? | -12% | 14% | 13%[46.1 µM] | -0.8% | -25%
CCOC(=O)CSc1nc2sc(C)c(C)c2c(=O)n1C | 0% | -14% | -10% | -10% | ? | -3% | -5.6% | -13%
Cc1cc(C)c(S(=O)(=O)N2CCC(N3CCN(Cc4ccc(F)cc4)C(=O)C3=O)CC2)c(C)c1 | . | -20% | . | -1% | -4%[46.1 µM] | . | 1.4% | .
COc1cccc(CN(C(=O)c2ccc(C(C)(C)C)cc2)C2CCS(=O)(=O)C2)c1 (stereo not given) | . | 30% | . | 3% | -13%[46.1 µM] | -19%[46.1 µM] | -7.1% | .
O=C1NC(c2ccccc2)=CC(c2ccccc2)N1 (stereo not given) | 2% | . | . | 39%[activator] | -28% | 7%[46.1 µM] | . | 1%
CCOc1c(Br)cc(CNc2ncn[nH]2)cc1OC | -1% | -4% | 5% | -20% | 6% | 9% | 1.5% | -9%
CC1=NN(C(N)=S)C(=O)C1N=Nc1ccc(S(N)(=O)=O)cc1 (stereo not given) | 8% | . | 19% | 14% | . | . | . | -2%
CCOC(=O)c1n[nH]n2c1nc(=S)c1ccccc12 | -7% | . | -67% | 18% | -10%[46.1 µM] | 8%[46.1 µM] | . | 0%
NS(=O)(=O)c1ccc(CCNC(=O)COC(=O)c2cc([N+](=O)[O-])ccc2N2CCOCC2)cc1 | 2% | . | . | -16% | -9% | 0%[46.1 µM] | . | 10%
COc1ccc(NS(=O)(=O)c2cccc(C(=O)NCc3ccco3)c2)cc1 | -6% | . | . | 21% | ? | -15% | . | -7%
CC(C)(C)NC(=O)COC(=O)c1ccc(Cl)cc1O | -1% | . | . | 24% | 12%[46.1 µM] | 12%[46.1 µM] | . | 6%
O=C(Nc1cccc(-c2cnc3ccccc3n2)c1)c1ccncc1 | 0% | . | 0% | -21% | 2% | -17%[46.1 µM] | . | 3%
Cc1cc(N=Cc2c(O)n(-c3ccc4c(c3)OCO4)c(=O)c3ccccc23)ccn1 | 4% | -24% | 14% | 16% | ? | ? | -9.3% | -4%
CCc1cccc(-n2c(C)nc3c(cnn3-c3ccc(Cl)cc3)c2=O)c1 | . | 2% | . | ? | -2%[46.1 µM] | -17%[46.1 µM] | -8.0% | .
CN(C)S(=O)(=O)c1cccc(NC(=S)NCCc2ccccn2)c1 | -5% | . | . | 108%[activator] | 8% | 15% | . | -3%
Cc1ccc(NC(=O)c2cc(=O)c3ccccc3o2)cc1S(=O)(=O)N1CCCCC1 | 0% | . | . | 25µM* | -23% | -21%[46.1 µM] | . | -14%
CC(NC(=O)CSc1ncn[nH]1)c1ccc(Cl)cc1Cl (stereo not given) | -2% | . | 6% | -10% | -10%[46.1 µM] | -1%[46.1 µM] | . | 16%
CCOC(=O)c1nnn(-c2nonc2-n2cccc2)c1CN1CCOCC1 | -8% | -1% | 9% | -14% | 0% | -1% | 8.1% | -7%
CCc1ccc2c(c1)c(=O)c(S(=O)(=O)c1ccc(F)cc1)cn2CC(=O)Nc1ccccc1OC | . | ? | . | 6% | -7%[46.1 µM] | ? | -4.3% | .
O=C(Nc1ccccc1C(=O)OCc1cc(=O)n2nc(C3CC3)sc2n1)c1ccc(Cl)cc1 | . | 7% | . | -13% | 18%[46.1 µM] | . | 1.2% | .
CCc1ccc(NS(=O)(=O)c2c(C(=O)N3CCCCCC3)c(C)n(C)c2C)cc1 | 4% | . | -4% | 38%[activator] | ? | -3%[46.1 µM] | . | 3%
CCOC(=O)c1sc(NC(=O)c2ccc(=O)[nH]c2)nc1C | 4% | . | -8% | -5% | 6% | -1%[46.1 µM] | . | -20%
O=C(/C=C/c1ccc(Cl)cc1Cl)NCc1ccncc1 | 5% | -16% | 1% | . | -1% | -6% | -1.8% | 6%
CCc1ccccc1NC(=O)CN(C)Cc1c(O)ccc2ccccc12 | -4% | . | 14% | -9% | 1% | 3%[46.1 µM] | . | ?
O=C1CCN(N=Nc2cccc(Cl)c2)N1 | 10% | -3% | 4% | . | . | 0% | -1.2% | .
COC(=O)[C@@]1(Cc2ccc(OC)cc2)[C@H]2c3cc(C(=O)N(C)C)n(CCc4ccc(OC)c(Br)c4)c3C[C@H]2CN1C(=O)c1ccccc1 | 11% | ? | ? | . | ? | ? | -1.9%&-7.4% | .
CCOC(=O)C1=C(CN2CCCCC2)NC(=O)NC1c1cc(C)ccc1C (stereo not given) | 3% | 0%&-3% | 9% | ? | -25%[46.1 µM] | 9.2µM* | 0.0%&6.3% | -20%
Cc1ccc(N2CCN(C(=S)Nc3ccc(Cl)cc3)CC2)cc1 | -1% | . | 1% | 16% | . | . | . | 1%
COc1cccc(CNC(=O)c2ccc(-c3nc(CSc4ccccc4)c(C)o3)cc2)c1 | . | -2% | . | -12% | 17%[46.1 µM] | . | -5.6% | .
O=C(CCc1ccccc1)NCCSCc1c(F)cccc1Cl | -16% | 1% | -38% | -7% | -7% | 4% | -4.9% | 19%
Cc1c(C(=O)N2CCOCC2)sc2ncn(CC(=O)N3CCC(C)CC3)c(=O)c12 | -1% | -3% | -4% | -14% | 3% | 10% | -1.1% | 3%
O=C(N/N=C/c1ccc2nccnc2c1)c1ccc(Br)cc1 | -1% | . | -35% | 21% | . | . | . | 10%
COc1ccc(C(=O)NNC(=O)Cn2nnc(-c3ccc(OC)c(OC)c3)n2)cc1 | 0% | . | 0% | -3% | . | . | . | -15%
CCOC(=O)C1=C(C)OC(N)=C(C#N)C1c1cncc(-c2ccc(F)cc2)c1 (stereo not given) | -20% | -20% | 3% | -28% | 5% | -8% | -25% | .
COc1cccc(/C=N/n2nnnc2N)c1OCc1ccccc1Cl | 24% | ? | -2% | -11% | 2% | 6% | -6.3% | -15%
CC(c1ccccc1)n1cncc1C(=O)O (stereo not given) | 9% | 1% | -1% | -3% | 11% | 5% | 1.1% | 23%
COc1ccc(CNC(=O)c2cnn3c(C(F)F)cc(C)nc23)cc1OC | -5% | -1% | -1% | ? | . | . | -0.2% | 6%
COc1ccc(CCNCc2ccc(-c3ccccc3)cc2)cc1OC | . | . | . | -24% | 4%[46.1 µM] | ? | . | 7%
COc1ccc(-c2noc(Cn3c(=O)c4ccccc4n(CC(=O)Nc4cccc(C(F)(F)F)c4)c3=O)n2)cc1 | . | 16µM* | . | 0% | -32%[46.1 µM] | . | -2.5% | .
COCCNC(=O)CN(Cc1cccs1)C(=O)CCC(=O)Nc1nccs1 | 0% | . | -10% | -6% | 8% | -1%[46.1 µM] | . | 9%
CCOc1cccc(/C(O)=C2/C(=O)C(=O)N(Cc3cccnc3)C2c2ccco2)c1 (stereo not given) | -26% | 7% | -2% | 61%[activator] | 25% | -2% | -3.9% | 1%
CCc1ccc(NC(=O)CN2CC(c3ccccc3)CC2=O)cc1 (stereo not given) | 0% | . | -1% | -4% | . | . | . | 6%
COc1ccc(C2=CC(c3ccc(OC)c(OC)c3)NC(=S)N2)cc1 (stereo not given) | 7% | -2% | 20% | -17% | 0% | -13%[46.1 µM] | 3.5% | -16%
CCn1cc(C(=O)NCCCN(CC(C)C)CC(C)C)c(=O)c2cc(S(=O)(=O)N(C)C3CCCCC3)ccc21 | 0% | -7% | -8% | 0%&19% | ? | -2%&-2%[46.1 µM] | -1.1% | -7%
COC(=O)CC(NC(=O)Nc1ccccc1F)c1ccc2c(c1)OCO2 (stereo not given) | -2% | . | 1% | 11% | . | . | . | -1%
COc1ccc(Cc2nnc(N)s2)cc1 | 6% | 1% | -1% | 8% | 1% | 12% | 2.1% | 1%
